MT1-MMP act inh: blockers of MT1-MMP proenzyme processing, primary screen, HT1080 RFP-PRO-GFP cells, GFP/RFP fluorescence | Matrix metalloproteinase-14 (Homo sapiens), P50281 | GFP/RFP ratio fluorescence, overnight; percent of plate control window, DMSO zero | GFP/RFP ratio change, % at 20 µM | 360,000 tested, 0.061% active;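 active means GFP/RFP ratio change of at least 30% with cell ATP level not reduced by more than half and red fluorescence within 50% of control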; further: strong numbers were not always called active
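Material – HT1080 RFP-PRO-GFP cells · Control set – DMSO wells and RFP-L50D-GFP cells · Incubation – overnight cell settling, then overnight compound exposure, 37 °C, 5% CO2 · Compound dosing – single-point 20 µM compound, 1% DMSO · Read-out – GFP/RFP fluorescence ratio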
PABP FP inh: PABP poly(A) RNA binding inhibitors, primary screen, biochemical, fluorescence polarization, uHTS; inhibition, % at 35 µM; Polyadenylate-binding protein 1 (Homo sapiens), P11940; AID 2014, 2009; 290,000 tested, 1% active;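 active means 50% or more with normal probe brightness, or confirmed in later tests; inconclusive means above 50% with abnormal brightness, or retests that disagree; inactive means below 50% or failed in later tests; about a fifth of its hits are not listed in these tables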;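 further: calls also rest on retests at 20 µM and on dose response follow-up; controls were probe without protein and protein plus probe with vehicle; some compounds called inactive have numbers as strong as hits; many hits fall short of the cut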
Target sequence (P11940 whole entry, looked up): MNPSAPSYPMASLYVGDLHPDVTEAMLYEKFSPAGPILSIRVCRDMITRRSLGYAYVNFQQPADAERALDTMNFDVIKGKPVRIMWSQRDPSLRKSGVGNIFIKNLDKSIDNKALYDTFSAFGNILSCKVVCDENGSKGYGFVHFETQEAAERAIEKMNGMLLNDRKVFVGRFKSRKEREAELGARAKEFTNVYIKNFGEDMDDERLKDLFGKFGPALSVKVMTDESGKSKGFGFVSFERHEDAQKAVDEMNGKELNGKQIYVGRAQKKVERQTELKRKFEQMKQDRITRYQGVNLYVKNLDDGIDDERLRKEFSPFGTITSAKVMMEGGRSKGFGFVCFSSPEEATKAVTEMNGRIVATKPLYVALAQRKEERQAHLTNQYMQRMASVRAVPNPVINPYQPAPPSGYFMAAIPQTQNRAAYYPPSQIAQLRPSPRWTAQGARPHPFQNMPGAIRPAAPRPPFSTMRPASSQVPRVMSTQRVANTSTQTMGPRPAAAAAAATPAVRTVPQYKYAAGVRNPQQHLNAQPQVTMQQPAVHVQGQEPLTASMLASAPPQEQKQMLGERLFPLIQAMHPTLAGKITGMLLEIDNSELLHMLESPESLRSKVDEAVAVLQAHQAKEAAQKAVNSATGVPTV
Yeast UUG start: modulators of yeast start codon fidelity, primary screen, whole organism, S. cerevisiae, single point, plate reader; S. cerevisiae UUG-firefly luciferase reporter, luminescence/redox ratio; activity score, % at 18.7 µM; 350,000 tested, 0.13% active; AID 602363, 2012;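 active means replicate mean at a twofold rise or more, about +100% in these data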;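 further: firefly luciferase made from a UUG start codon reports start codon fidelity; reporter light over untreated wells divided by growth signal over untreated wells; some hits fall short of that in this replicate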
eIF4H FP inh: human eIF4H binding inhibitors, primary screen, translation initiation inhibitor project, biochemical, uHTS, fluorescence polarization; 290,000 tested, 0.94% active; eIF4H fluorescence polarization binding assay; inhibition, % at 35 µM; Eukaryotic translation initiation factor 4H (Homo sapiens), Q15056;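 active means 50% or more with normal probe brightness, or confirmed in later tests; inconclusive means above 50% with abnormal brightness, or retests that disagree; inactive means below 50% or failed in later tests; about a fifth of its hits are not listed in these tables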;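 further: calls also rest on retests at 20 µM and on dose response follow-up; 0% = protein and probe with vehicle and 100% = probe without protein; strong numbers were not always called active; many hits fall short of the cut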
Rce1 inh: yeast Rce1p protease inhibitors, primary screen, biochemical, fluorescence, cell-free homogeneous | CAAX prenyl protease 2 (Saccharomyces cerevisiae (strain ATCC 204508 / S288c)), Q03530 | 290,000 tested, 0.27% active | yeast membranes, quenched prenylated peptide cleavage fluorescence | calls only;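 active means fall in fluorescence gain of 50% or more versus controls, with final raw signal at or below 3038400; inconclusive means same 50% fall but final raw signal above 3038400; inactive means fall in fluorescence gain under 50%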;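 further: plate controls were neutral control wells for no effect and wells lacking membranes for full effect; tested at 10 µM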
Target sequence (Q03530 whole entry, looked up): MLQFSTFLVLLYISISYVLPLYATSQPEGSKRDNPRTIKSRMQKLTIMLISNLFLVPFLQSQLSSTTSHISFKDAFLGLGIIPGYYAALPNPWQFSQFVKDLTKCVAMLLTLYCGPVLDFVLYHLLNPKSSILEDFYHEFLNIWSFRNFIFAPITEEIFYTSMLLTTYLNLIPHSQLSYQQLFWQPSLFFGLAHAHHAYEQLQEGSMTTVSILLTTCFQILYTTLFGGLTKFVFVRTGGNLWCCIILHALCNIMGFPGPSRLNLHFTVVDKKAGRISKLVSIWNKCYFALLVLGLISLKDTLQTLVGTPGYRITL
Env fusion inh: inhibitors of HIV-1 Env-driven cell-cell fusion, primary screen, HeLa-JRFL effector, CEM21 target cells, luciferase | inhibition, % at 12.3 µM | AID 651610, 2012 | 360,000 tested, 1.1% active;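 active means mean replicate inhibition score of at least 50 and every replicate individually at or above 50; inconclusive means only one of the two criteria met; inactive means mean below 50 and not all replicates reaching 50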;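 further: 0% = plate neutral controls and 100% = maraviroc near 300 nM; one replicate is shown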
CSC inhib: cancer stem cell viability inhibitors, primary screen, luminescence; 300,000 tested, 1.1% active; inhibition, % at 7.5 µM; cancer stem cell-like cells viability;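 active means mean at 75% or more and at least half the replicates too; inconclusive means mean and replicates disagree; tested in HMLE shEcad cells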;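 further: 0% = median of negative and 100% = median of positive control wells; the first replicate is given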
MT1-MMP act inh RFP: further read-out of MT1-MMP act inh, marked with its call; RFP signal change, %; measured here: RFP expression control read;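 0 = vehicle wells; hits needed this value within 50% of zero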
Active calls of the source: *; i = inactive; ? = inconclusive; nt = not tested or not shown.

SMILES,MT1-MMP act inh,MT1-MMP act inh RFP,PABP FP inh,Yeast UUG start,eIF4H FP inh,Rce1 inh,Env fusion inh,CSC inhib
CCOc1cc(/C=C2\C(=O)ON=C2c2ccccc2)cc(Br)c1O,-27,19,?,-8,?,i,5,53
O=C(O)COc1c(Cl)cc(/C=C2/NC(=O)NC2=O)cc1Br,3,2,-4,nt,-6,i,10,1
Cn1c(CNC(=O)CNS(=O)(=O)c2ccccc2)cc(=O)n(C)c1=O,0,-1,nt,nt,nt,i,1,-2
CCOC(=O)C1CCN(C(=S)Nc2cccc(C)c2C)CC1,1,5,12,-34,17,i,5,nt
Cc1cc(Cl)ccc1OCCCC(=O)NCc1ccncc1,2,-3,2,-15,-14,i,-3,nt
Cc1cc(N2C(=O)C3C4CC(c5ccccc5)C(C4)C3C2=O)no1 (stereo unspecified),1,3,0,-13,7,i,-21,-4
Cc1c(Cl)cccc1-n1c(-c2cccnc2)n[nH]c1=S,3,2,-3,nt,-5,i,-8,-2
COc1cccc(Nc2nc3ccccc3nc2-n2nc(C)cc2C)c1,-1,-1,-5,-17,-2,i,-2,35
Cc1nn(-c2ccccc2)cc1C(=S)Nc1ccccc1,2,-6,2,-17,-5,nt,-6,13
Cc1c(C(=O)N(Cc2ccc(N(C)C)cc2)CC2CCCO2)oc2ccccc12 (stereo unspecified),-4,-2,-10,-2,-6,i,16,-3
COc1ccc(OC)c(N/C(C)=C/C(=O)c2ccccc2)c1,6,3,0,nt,1,i,-35,29
CNc1ccccc1C(C)(C)c1cc(-c2cccc(OC)c2)no1,47*,9.5*,?,nt,-2,i,48,nt
C=CCN(CC=C)C(=S)NC(=O)/C=C/c1ccccc1,-3,2,14,-7,-3,i,nt,-19
O=C(CN1c2cccc3cccc(c23)S1(=O)=O)NCCc1ccccc1,5,0,nt,0,nt,nt,nt,-8
O=C(NCC1CCCO1)c1cc(-c2ccccc2)nc2ccc(Br)cc12 (stereo unspecified),6,5,-2,-5,0,i,-27,4
O=[N+]([O-])c1ccc2[nH]c3c(c2c1)CCCC3O (stereo unspecified),-2,-4,-8,-10,0,i,-21,7
COc1ccc(NC(=S)N2CCN(S(C)(=O)=O)CC2)cc1OC,5,7,2,-29,-5,i,7,12
Cc1cccc(NC(=O)NC(=O)c2ccccc2)n1,1,-1,2,nt,3,i,-11,-8
NC(=O)c1nsc(C(=O)N(c2ccccc2)C(C(=O)NCC2CCCO2)c2ccc3ncccc3c2)c1N (stereo unspecified),1,1,8,-3,-2,nt,15,1
CCC(=O)N1c2ccc(S(=O)(=O)NCCc3ccc(C)cc3)cc2CC1C (stereo unspecified),-1,1,-6,-10,13,i,5,2
Cc1cc(C)nc(N2CCC(C(=O)NC3CCCCCC3)CC2)n1,3,5,nt,-1,nt,i,-17,-3
COc1ccc(N2CCN(C(=O)CNC(=O)c3cccs3)CC2)cc1,4,0,-13,-5,-2,i,nt,0
CCOC(=O)C(C)Sc1nc2c(c(-c3cccs3)c1C#N)CCC2 (stereo unspecified),-4,1,3,nt,-2,i,20,24
Cc1ccsc1C(=O)N1CCN(c2ccccn2)CC1,4,3,-11,-14,-3,i,3,9
Cc1ncc(CSc2ccc(Cl)cc2)c(CO)c1O,4,5,-1,-10,2,i,3,-4
O=C(/C(=N/O)c1ccccc1)c1ccccc1,1,5,nt,-31,nt,nt,12,nt
CSc1ccc(S(=O)(=O)N2CCCC2)cc1,-2,0,0,nt,-22,i,nt,-15
CCOc1ccc(S(=O)(=O)N2CCC(C(=O)NC3CCCC3)CC2)cc1,0,-1,3,-5,-3,i,-1,-6
C/C(=N\NC(=O)c1ccco1)c1cccc2ccccc12,-1,2,-3,nt,-1,i,4,-4
CC(=O)/C(=N/Nc1ccc(Br)cc1)N1CCCc2ccccc21,-31,-28,10,nt,2,i,16,40
Nc1nc2ccc(C(=O)NCCOC(=O)C3CCCCC3)cc2s1,7,4,-4,nt,5,i,0,-5
Cc1ccc2c(CN3CCC(C)CC3)cc(=O)oc2c1C,-2,3,-3,-13,-6,i,-25,4
NCCN1CCN(S(=O)(=O)c2ccc([N+](=O)[O-])cc2)C=C1c1ccc(Cl)cc1,-1,7,nt,-1,nt,nt,-31,2
Cc1[nH]nc2nc(SCC(=O)NC3CCCCC3)n(-c3ccc(Br)cc3)c(=N)c12,-2,-3,11,-21,-2,i,36,?
O=C(O)CCn1cc(C2CC(c3ccccc3)=NN2c2ccccc2)c(-c2ccccc2)n1 (stereo unspecified),6,-4,-9,-12,2,i,-11,11
CN(/N=C/c1ccc2c(c1)OCO2)c1nc(N2CCOCC2)nc(N2CCOCC2)n1,-1,5,-6,nt,-8,i,-11,2
O=C(NC1CCCCC1)C(c1ccccc1F)N(Cc1ccco1)C(=O)Cn1nnc2ccccc21 (stereo unspecified),0,-3,0,-4,-7,i,nt,-13
Cc1nc(-c2ccccc2)nn1-c1ccc([N+](=O)[O-])cc1,2,-1,nt,-25,nt,i,-26,-6
CCCCCC(O)(CCCCC)C(=O)NNc1ccccc1,0,-6,-3,-14,-4,i,nt,-5
COc1cccc(C(C(=O)NC(C)(C)C)N(C(=O)CCC(=O)Nc2cc(C)on2)C(C)(C)C)c1OC (stereo unspecified),-1,0,0,-6,4,i,9,nt
O=C(NNS(=O)(=O)c1ccc(F)cc1F)C1Cc2c(ccc3ccccc23)O1 (stereo unspecified),7,-8,1,-14,-10,i,97*,2
O=C(O)c1ccccc1C(=O)Nc1nccs1,2,7,-6,-15,4,i,-46,-14
O=[N+]([O-])c1ccc(C[n+]2cccc3c4ccccc4ccc32)cc1,-130,-8,10,nt,43,i,3,-16
CCC(c1nnnn1Cc1ccccc1)N(Cc1cc2cc(OC)ccc2[nH]c1=O)CC1CCCO1 (stereo unspecified),-2,1,7,nt,4,i,nt,-19
COC(=O)c1ccc(NC(=O)C2C3C=CC(C3)C2C(=O)O)cc1 (stereo unspecified),1,1,4,-3,-14,i,-2,4
CCOc1ccc(CNC(=O)CCCC(=O)n2ncc3cc(C)ccc32)cc1,-4,1,-11,-27,-11,i,-34,nt
CN(/N=C/c1ccc(-c2ccc([N+](=O)[O-])cc2)o1)c1ccccc1,-72,27,6,0,48,i,-26,36
CCOC(=O)C(CC)Sc1nnc(COc2ccc(C)cc2)n1-c1ccccc1 (stereo unspecified),-6,-6,2,-4,10,i,3,nt
COc1ccc2c(c1OC)C(=O)OC2Nc1nc(-c2cc3ccccc3oc2=O)cs1 (stereo unspecified),6,-1,35,-2,-4,i,nt,26
COc1cccc(/C=N/NC(=O)Cn2ccnc2C)c1,-2,1,-5,nt,-5,i,11,-1

By substructure: the compounds so far with fluorine
SMILES,MT1-MMP act inh,MT1-MMP act inh RFP,PABP FP inh,Yeast UUG start,eIF4H FP inh,Rce1 inh,Env fusion inh,CSC inhib
O=C(NC1CCCCC1)C(c1ccccc1F)N(Cc1ccco1)C(=O)Cn1nnc2ccccc21 (stereo unspecified),0,-3,0,-4,-7,i,nt,-13
O=C(NNS(=O)(=O)c1ccc(F)cc1F)C1Cc2c(ccc3ccccc23)O1 (stereo unspecified),7,-8,1,-14,-10,i,97*,2

Next section.
SMILES,MT1-MMP act inh,MT1-MMP act inh RFP,PABP FP inh,Yeast UUG start,eIF4H FP inh,Rce1 inh,Env fusion inh,CSC inhib
O=C(Nc1nccs1)NC(C(F)(F)F)C(F)(F)F,1,-1,-3,nt,-2,i,nt,4
COc1ccc(Cl)cc1NC(=O)C1COc2ccccc2O1 (stereo unspecified),-1,-1,0,nt,2,i,-7,41
CCCCc1c(O)c2cccc3c2n(c1=O)CCC3,2,4,nt,13,nt,i,1,-7
COC(=O)c1cccc(NS(=O)(=O)c2ccc(OC)cc2)c1C,-7,-13,0,-15,15,i,nt,47
Cc1c(CCC(=O)NCCC(=O)O)c(=O)oc2c(C)c3oc4c(c3cc12)CCCC4,0,-3,17,-8,-6,i,10,-4
COC(=O)c1ccccc1NC(=O)CSc1nc(NC(=O)c2ccccc2)c2c(C)c(C)oc2n1,5,3,0,-10,0,i,nt,-13
Cc1cc(NC(=O)CCC(=O)N(CC2CCCO2)C(C(=O)NC2CCCC2)c2ccccc2C)no1 (stereo unspecified),-3,0,nt,0,nt,nt,nt,1
CCn1c(NCCO)nc2c(c1=O)C(C)(CC)Cc1ccccc1-2 (stereo unspecified),3,-5,1,nt,-4,i,11,0
CCn1c2ccccc2c2cc(NC(=O)COc3ccccc3OC)ccc21,5,-10,-1,nt,-6,i,nt,63
O=C(COc1ccc(Oc2ccccc2)cc1)NC1CCS(=O)(=O)C1 (stereo unspecified),-3,-7,nt,-13,nt,nt,-6,-12
CCc1ccc2c(c1)C(=O)c1ccccc1C2=O,-1,5,0,nt,2,i,-56,-9
Nc1ncncc1-c1ccc(F)cc1,-4,0,nt,-19,nt,nt,-1,nt
COc1cc(/C=C2/C(=O)N(c3ccc(C)c(C)c3)N=C2C)cc([N+](=O)[O-])c1O,1,1,16,-10,-1,i,2,12
Cn1c(CCC(=O)OCC(=O)Nc2ccc(Oc3ccccc3)cc2)nc(=O)c2ccccc21,1,2,8,nt,15,i,1,-2
Clc1ccc2nnc(Cl)n2n1,-3,-1,-7,nt,2,i,-2,-1
Cc1ccc(NC(=O)C2CCN(S(=O)(=O)c3cnc[nH]3)CC2)cc1C,-2,4,-3,-14,-5,i,nt,-2
COC(=O)c1ccc(C(=O)OC)c(NC(=O)C2CC(=O)N(C3CCCC3)C2)c1 (stereo unspecified),3,-6,nt,-4,nt,nt,0,nt
CCOc1cc(OCC)c(C(C)=O)cc1OCC,-2,5,nt,-3,nt,nt,nt,0
Cc1ccc(-n2nc3c(=O)n(CCCC(=O)NCc4ccc(Cl)cc4)nc(C)c3c2C)cc1,4,-3,-9,-11,-2,i,14,13
O=C(O)c1cc(O)c2c(c1)[C@@H]([C@H]1c3cc(C(=O)O)cc(O)c3C(=O)c3c(O[C@@H]4O[C@H](CO)[C@@H](O)[C@H](O)[C@H]4O)cccc31)c1cccc(OC3O[C@H](CO)[C@@H](O)[C@H](O)[C@H]3O)c1C2=O (stereo partly specified),5,-2,nt,-13,nt,i,11,15
COc1ccc(CC(=O)Nc2nccs2)cc1S(=O)(=O)N1CCOCC1,0,1,nt,-19,nt,nt,nt,-9
CCOC(=O)C1CCN(C(=O)COC(=O)c2ccccc2OCC)CC1,-2,-3,nt,-14,nt,nt,10,10
COCc1nnc(NC(=O)c2ccc(OC)cc2OC)s1,-9,5,-2,nt,-2,i,-29,-8
Cn1ncc(Br)c1C(=O)Nc1c(F)c(F)cc(F)c1F,10,11,-3,-1,9,i,-96,-1
CCCOc1ccccc1C(=O)N(Cc1cccc(Br)c1)C1CCS(=O)(=O)C1 (stereo unspecified),-4,-4,-2,-4,-3,i,8,7
COc1ccc(-c2sc3ccc(N4CCOCC4)cc3c2-c2ccc(OC)c(F)c2)cc1,2,-4,-6,-11,-10,i,6,47
